Mtb H37Rv = Mycobacterium tuberculosis H37Rv growth inhibition, putative kinase inhibitor library, confirmatory dose response (AID 2842); 5.2% of 24,000 active; inhibition, % at 10 µg/mL, or IC90 in µg/mL where a hit was titrated; M. tuberculosis H37Rv growth inhibition; higher % means a stronger effect; some inactives read as strong as hits;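 active means confirmed in a dose series; inconclusive means mostly over 85% at the one dose but not retested; inactive means below 85% or not confirmed; about a fifth of its hits are not listed in these tables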;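 further: bacteria incubated one week before Alamar blue readout; 0% = bacteria only wells and 100% = bacteria with high antibiotic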
* marks the source's active call; other numbers are inactive results. This is a subset; the hit share may differ from the screen's.

Results for CCOC(=O)c1nn(-c2ccc(OC)cc2)c(=O)c2c(NC(=O)c3cccc(C(F)(F)F)c3)scc12 ?
Mtb H37Rv: -1.2%

Results for CCOc1ccc(N2CC(c3nc4ccccc4n3Cc3ccccc3)CC2=O)cc1 (stereo unspecified) ?
Mtb H37Rv: 11.9%

How did O=C(Nc1nnc(-c2cccc([N+](=O)[O-])c2)s1)c1ccc(F)cc1 do in these assays?
Mtb H37Rv: 6.0%

How did CCn1c(SCCN2CCOCC2)nc2c1c(=O)n(C)c(=O)n2C do in these assays?
Mtb H37Rv: -8.4%

What do the screens show for `CCOC(=O)c1c(C)oc2c1c(C=Nc1ccc(F)cc1)c(O)c1ccccc12`?
Mtb H37Rv: -6.6%

What do the screens show for `O=C(CSc1nc2[nH]ncc2c(=O)[nH]1)Nc1ccc(F)cc1F`?
Mtb H37Rv: -5.8%

What do the screens show for `CC(C)(C)c1ccc(C(=O)Nc2nnc(-c3ccccn3)o2)cc1`?
Mtb H37Rv: 8.06µg/mL*

How did COc1ccc(N2C(=O)C3N=NN(CC(=O)Nc4ccc(C)c(F)c4)C3C2=O)cc1Cl (stereo unspecified) do in these assays?
Mtb H37Rv: 5.8%

What do the screens show for `COc1ccc(Cn2cc(C(=O)c3ccc(C)cc3)c(=O)c3cc(OC)c(OC)cc32)cc1`?
Mtb H37Rv: 7.05µg/mL*

Results for Nc1nc(SCC(=O)Nc2cccc(F)c2)[nH]c(=O)c1NC(=O)c1ccccc1F ?
Mtb H37Rv: -9.8%

How did Cc1cc(NC(=O)CCC2CCCCC2)nc2c1c(=O)oc1ccccc12 do in these assays?
Mtb H37Rv: 5.3%

What do the screens show for `CCCCNC(=O)C(=O)Nc1cc2c3c(c1)CCC(=O)N3CCC2`?
Mtb H37Rv: -0.8%

Results for O=C(Nc1nc(-c2ccc(Br)cc2)cs1)c1cc(=O)c2ccccc2o1 ?
Mtb H37Rv: -13.1%

How did O=C(Nc1nnc(-c2ccncc2)o1)c1ccc(Cl)cc1 do in these assays?
Mtb H37Rv: 81.4%

How did CCOc1ccccc1NC(=O)COc1ccc2c(=O)c(Oc3ccc(CC)cc3)coc2c1 do in these assays?
Mtb H37Rv: 1.4%

What do the screens show for `O=C(Cc1csc(NC(=O)c2ccccc2)n1)Nc1nccs1`?
Mtb H37Rv: 2.0%

How did CCOc1ccccc1NCCCn1c(C)cn2c3c(=O)[nH]c(=O)n(C)c3nc12 do in these assays?
Mtb H37Rv: 31.9%

Results for CN1CCN(C(CNC(=O)C(=O)NCc2ccc3c(c2)OCO3)c2ccc(F)cc2)CC1 (stereo unspecified) ?
Mtb H37Rv: 2.5%

How did CS(=O)(=O)Nc1cccc(C2=NN(C(=O)C3CCCCC3)C(c3cccc(F)c3)C2)c1 (stereo unspecified) do in these assays?
Mtb H37Rv: -1.2%

Results for O=C(/C=C\c1ccc2c(c1)OCO2)Nc1c(C(=O)Nc2cccc(F)c2)oc2ccccc12 ?
Mtb H37Rv: 3.0%

What do the screens show for `O=C(CC1CCS(=O)(=O)C1)Nc1nc2ccccc2s1` (stereo unspecified)?
Mtb H37Rv: 6.1%

How did Cc1ccc(-c2csc(NC(=O)c3ccc(S(=O)(=O)N4CCC(C)CC4)cc3)n2)cc1 do in these assays?
Mtb H37Rv: 3.0%

How did CCC1CCCCN1C(=O)CSc1nc(N)c(NC(=O)c2ccc(OC)c(OC)c2)c(=O)[nH]1 (stereo unspecified) do in these assays?
Mtb H37Rv: -13.8%

Results for Cc1ccccc1Nc1ncnc(N)c1[N+](=O)[O-] ?
Mtb H37Rv: 13.3%

How did CC(C)CCNC(=O)CCCCCn1c(=S)[nH]c2ccc(Br)cc2c1=O do in these assays?
Mtb H37Rv: -16.0%

What do the screens show for `Cc1cc(S(=O)(=O)Nc2cc3c4c(c2)C(C)C(=O)N4CCC3)ccc1F` (stereo unspecified)?
Mtb H37Rv: 0.7%

What do the screens show for `Cc1cccc(NC(=O)CSc2nc3c(c(=O)n2Cc2ccccc2)SC(C)C3)c1C` (stereo unspecified)?
Mtb H37Rv: 3.0%

What do the screens show for `Cc1ccc(N2C(=O)N(c3ccc(F)cc3)C3CS(=O)(=O)CC32)cc1C` (stereo unspecified)?
Mtb H37Rv: 9.4%

What do the screens show for `Cc1ccc(C2/C(=C(\O)c3cnn(-c4ccccc4)c3C)C(=O)C(=O)N2CCCN(C)C)o1` (stereo unspecified)?
Mtb H37Rv: -3.6%

What do the screens show for `O=C(CCC1CCCCC1)Nc1c(C(=O)Nc2ccc([N+](=O)[O-])cc2)oc2ccccc12`?
Mtb H37Rv: -4.5%

Results for CCOC(=O)CSC(CC)C(=O)Nc1nnc(-c2ccccc2Cl)s1 (stereo unspecified) ?
Mtb H37Rv: 2.5%

Results for CCOc1ccc(-n2cc(-c3ccc(OC)c(OC)c3)[nH]c2=O)cc1 ?
Mtb H37Rv: 19.5%

Results for COc1ccc(Cl)cc1NC(=O)c1c[nH]c(=O)n(-c2ccc(F)cc2)c1=O ?
Mtb H37Rv: 5.5%

How did CCOc1ccc(C(=O)Nc2c3c(nn2-c2ccccc2C)CS(=O)C3)cc1 (stereo unspecified) do in these assays?
Mtb H37Rv: -0.6%

What do the screens show for `Cc1ccc(S(=O)(=O)N2CCCc3ccc(NC(=O)C(=O)Nc4ccccc4)cc32)cc1`?
Mtb H37Rv: -14.0%

Results for C=CCn1c(SCC(=O)Nc2ccc(C(=O)OCC)cc2)nnc1-c1ccc(N)cc1 ?
Mtb H37Rv: -1.7%

Results for CCOC(=O)COc1cccc2c(=O)n(CC(=O)N3CCN(c4ccccc4)CC3)ccc12 ?
Mtb H37Rv: -3.9%

How did COc1ccc(CC2S/C(=N/N=C/c3cn(C)c4ccccc34)NC2=O)cc1 (stereo unspecified) do in these assays?
Mtb H37Rv: 50.3%

What do the screens show for `Cc1ccc(N2C(=O)C3N=NN(CC(=O)NCc4ccc(Cl)cc4)C3C2=O)cc1Cl` (stereo unspecified)?
Mtb H37Rv: -9.4%

Results for CC(C)c1cc(C(=O)N/N=C/c2c[nH]c3ccccc23)n[nH]1 ?
Mtb H37Rv: -5.0%

Results for NC(=O)c1c(NC(=O)c2nc3ccccc3s2)sc2c1CCCCC2 ?
Mtb H37Rv: 0.8%

What do the screens show for `COc1ccccc1NC(=O)C1=C(C)NC(=O)NC1c1cccs1` (stereo unspecified)?
Mtb H37Rv: -3.9%

What do the screens show for `Cc1cccc(NC(=O)CS(=O)(=O)c2c[nH]c3ccccc23)c1C`?
Mtb H37Rv: 7.3%

What do the screens show for `COC(=O)c1ccccc1-c1ccc(/C=C/c2cc(C(=O)O)c3ccccc3n2)o1`?
Mtb H37Rv: -7.4%

How did O=C(c1cccs1)N1CCN=C1SCc1ccc([N+](=O)[O-])cc1 do in these assays?
Mtb H37Rv: -5.8%

How did O=C(Nc1c(C(=O)Nc2ccc3c(c2)OCCO3)oc2ccccc12)c1ccccc1Cl do in these assays?
Mtb H37Rv: 3.2%

What do the screens show for `COc1ccc(C2=CC(c3ccc(C)cc3)n3ncnc3N2)cc1` (stereo unspecified)?
Mtb H37Rv: 0.0%

How did NCc1n[nH]c(=O)c2ccccc12 do in these assays?
Mtb H37Rv: 0.3%

Overlap with the part before: two entries; new compounds follow.
What do the screens show for `COc1ccc(C2=CC(c3ccc(C)cc3)n3ncnc3N2)cc1` (stereo unspecified)?
Mtb H37Rv: 0.0%

How did NCc1n[nH]c(=O)c2ccccc12 do in these assays?
Mtb H37Rv: 0.3%

What do the screens show for `COc1ccc(C2CC(c3cccc(NS(C)(=O)=O)c3)=NN2C(=O)C(C)C)cc1` (stereo unspecified)?
Mtb H37Rv: -17.1%

What do the screens show for `CCOC(=O)C1CCN(C(c2cccc(F)c2)c2sc3ncnn3c2O)CC1` (stereo unspecified)?
Mtb H37Rv: -10.4%

How did CCOC(=O)c1cc(NC(=O)Nc2ccc(I)cc2)c(C)nc1C do in these assays?
Mtb H37Rv: 43.7%

What do the screens show for `CCOC(=O)COc1cccc2c(=O)n(CC(=O)Nc3ccc(C(F)(F)F)cc3)ccc12`?
Mtb H37Rv: -8.3%

How did COc1ccc(Cl)cc1NC(=O)CSc1nnc(CNC(=O)c2cccc([N+](=O)[O-])c2C)o1 do in these assays?
Mtb H37Rv: -2.6%

How did N#Cc1ccsc1NC(=O)c1coc2ccccc2c1=O do in these assays?
Mtb H37Rv: 2.6%

What do the screens show for `Cc1cc(C)n(-c2ncnc3scc(-c4ccc(Br)cc4)c23)n1`?
Mtb H37Rv: -13.0%

What do the screens show for `CCOc1ccc(-n2nnc3c(=O)n(CC(=O)N4CCC(Cc5ccccc5)CC4)cnc32)cc1`?
Mtb H37Rv: -6.2%

Results for Cc1ccc(NC2CC(=O)N(c3cccc([N+](=O)[O-])c3)C2=O)cc1 (stereo unspecified) ?
Mtb H37Rv: 3.9%

Results for COCCNC(=O)CSc1nc2c([nH]c3ccccc32)c(=O)n1-c1ccccc1F ?
Mtb H37Rv: 1.4%

How did COC(=O)Cn1c(=NC(=O)CSC(C)=O)sc2cc(C(=O)OC)ccc21 do in these assays?
Mtb H37Rv: 9.6%

What do the screens show for `O=C(CCc1ccccc1)NNc1ncnc2c1cnn2-c1ccc(Cl)c(Cl)c1`?
Mtb H37Rv: 18.0%

How did Fc1ccccc1Cn1cc2c(-c3ccc(Cl)cc3)nnc-2c2cc3c(cc21)OCO3 do in these assays?
Mtb H37Rv: -0.4%

What do the screens show for `Cn1c(NC(=O)/C=C/c2ccccc2)cc(=O)n(C)c1=O`?
Mtb H37Rv: -3.7%

What do the screens show for `O=C(Nc1ccc2c(c1)OCCO2)c1ccccc1-c1n[nH]c2c1CCCC2`?
Mtb H37Rv: 12.6%

Results for COc1ccccc1N1C(=O)CC(Sc2ccccc2C(=O)O)C1=O (stereo unspecified) ?
Mtb H37Rv: -10.3%

What do the screens show for `CCCn1ccc2c(OCc3ccccn3)cccc2c1=O`?
Mtb H37Rv: 12.5%

What do the screens show for `Nn1c(SCC(=O)Nc2ccc(F)c(Cl)c2)nnc(Cc2ccccc2)c1=O`?
Mtb H37Rv: 2.6%

How did CCOC(=O)c1nn(-c2ccc(Cl)cc2)c(=O)c2c(NC(=O)c3cccc(Br)c3)scc12 do in these assays?
Mtb H37Rv: -7.3%

How did COc1ccccc1NC(=O)c1oc2ccccc2c1NC(=O)c1cccc2ccccc12 do in these assays?
Mtb H37Rv: 3.5%

What do the screens show for `Cc1cccc(NC(=O)CSC2=C(C#N)C(c3ccc(F)cc3)CC(=O)N2)c1` (stereo unspecified)?
Mtb H37Rv: 1.6%

How did Cc1nn(-c2ccccc2)c(C)c1/C=N\NC(=O)CCn1cnc2ccccc21 do in these assays?
Mtb H37Rv: 3.8%

Results for Cc1ccc(-c2cc(=O)c3cc(NC(=O)c4ccccn4)ccc3o2)cc1 ?
Mtb H37Rv: -7.5%

How did COC(=O)c1c(NC(=O)CC2NCCNC2=O)sc2c1CCCC2 (stereo unspecified) do in these assays?
Mtb H37Rv: -11.6%

Results for COc1ccc(/C=C2/SC(=Nc3cccc(O)c3)NC2=O)cc1OC ?
Mtb H37Rv: -2.7%

Results for COC(=O)c1cc(Br)ccc1NC(=O)c1ccc(Cl)cc1Cl ?
Mtb H37Rv: -3.1%

What do the screens show for `COc1ccc(-n2c(=O)[nH]c3c(C(N)=O)nc(-c4cccc(Cl)c4)nc32)cc1`?
Mtb H37Rv: 4.6%

What do the screens show for `COC(=O)c1ccc(Cn2cnc3c(cnn3-c3ccccc3)c2=O)o1`?
Mtb H37Rv: 2.6%

How did Cc1cc(SCc2cccc3ccccc23)nc(=O)[nH]1 do in these assays?
Mtb H37Rv: -18.6%

Results for COc1ccc(-c2nnc(NC(=O)c3ccc4c(c3)OCCO4)o2)c(OC)c1 ?
Mtb H37Rv: 24.7µg/mL*

Results for CCOc1cc(C(=O)Nc2nnc(-c3ccc(C)cc3)s2)cc(OCC)c1OCC ?
Mtb H37Rv: 12.5%

What do the screens show for `COc1ccc(C)c2sc(NC(=O)C3=COCCO3)nc12`?
Mtb H37Rv: 21.2%

How did CCOC(=O)c1nn(-c2ccc(C)cc2)c(=O)c2c(NC(=O)c3ccc(C)cc3)scc12 do in these assays?
Mtb H37Rv: 13.5%

How did O=c1oc2ccc(Br)cc2cc1-c1nnc(Nc2ccccc2F)s1 do in these assays?
Mtb H37Rv: 37.2%

Results for COC(=O)COc1ccc2c(-c3cc4cc(Cl)ccc4oc3=O)cc(=O)oc2c1 ?
Mtb H37Rv: -13.2%

How did Cc1cccc(C)c1NC(=O)Cn1c(=O)n(-c2ccc(F)cc2)c(=O)c2c(C)c(C(=O)N(C)C)sc21 do in these assays?
Mtb H37Rv: 2.0%

Seven entries picked at random from the list so far:
What do the screens show for `COc1ccc(-n2c(=O)[nH]c3c(C(N)=O)nc(-c4cccc(Cl)c4)nc32)cc1`?
Mtb H37Rv: 4.6%

Results for CCOc1cc(C(=O)Nc2nnc(-c3ccc(C)cc3)s2)cc(OCC)c1OCC ?
Mtb H37Rv: 12.5%

What do the screens show for `COc1ccc(C)c2sc(NC(=O)C3=COCCO3)nc12`?
Mtb H37Rv: 21.2%

What do the screens show for `COC(=O)c1ccc(Cn2cnc3c(cnn3-c3ccccc3)c2=O)o1`?
Mtb H37Rv: 2.6%

How did Cc1cccc(C)c1NC(=O)Cn1c(=O)n(-c2ccc(F)cc2)c(=O)c2c(C)c(C(=O)N(C)C)sc21 do in these assays?
Mtb H37Rv: 2.0%

Results for COC(=O)c1cc(Br)ccc1NC(=O)c1ccc(Cl)cc1Cl ?
Mtb H37Rv: -3.1%

Results for COc1ccc(-c2nnc(NC(=O)c3ccc4c(c3)OCCO4)o2)c(OC)c1 ?
Mtb H37Rv: 24.7µg/mL*

The list goes on.
What do the screens show for `COc1cccc2sc(Nc3nc4cc5c(cc4s3)OCO5)nc12`?
Mtb H37Rv: inconclusive

What do the screens show for `Cc1ccc(-c2csc(NC(=O)c3ccc4c(c3)OCCO4)n2)cc1`?
Mtb H37Rv: -11.9%

How did COc1ccccc1N/C=C(\C#N)c1nc(-c2ccc(C)cc2C)cs1 do in these assays?
Mtb H37Rv: -11.9%

How did O=C(Nc1ccc(O)c(-c2nc3ccccc3s2)c1)c1coc2ccccc2c1=O do in these assays?
Mtb H37Rv: -1.4%

Source: PubChem
